Screening results as filed in PubChem.
Rango dissoc inh – prevents RanGTP from dissociating the Rango-importin beta complex; Potency, µM (highest dose often 46.1 µM), for inactives: top-dose activity change, negative = inhibition; AID 540253; Biochemical FRET Rango-importin beta, RanGTP-induced dissociation; O95149+P62826; 340,000 tested, 0.071% active; active means falling FRET ratio curve, often poorly fitted, with flat reads before Ran was added; inconclusive means other falling curves, or compound fluorescence or quenching; inactive means flat or rising ratio curve;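 note: potency is the fitted concentration of half-maximal effect; % of control where 0% means no effect; nearly all actives have a fitted effect of over 45% in size; -100% = wells without RanGTP and RCC1; the record marks most hits as doubtful in a second field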
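Compounds preincubate 5 min with complex of recombinant Rango and importin beta in PBS with 1 mM DTT. Ran (0.6 uM) loaded with 2 mM GTP plus 0.2 uM RCC1 starts dissociation; FRET is recorded 45 min later.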
GLA inh pH 4.5 – blocks human alpha-galactosidase A at pH 4.5. activity change, negative = inhibition, % at 105 µM. P06280. purified enzyme, 4-MU-alpha-Gal fluorescence, pH 4.5. 230,000 tested, under 10 active; inconclusive = small, poorly fitted or top-dose-only inhibition, or a rising curve; inactive = flat fitted curve, though single readings scatter; no compound was filed as active;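 note: 0% = full activity with enzyme and -100% = basal without enzyme; dose as in the result columns while the protocol names 77 µM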
Target sequence (P06280 whole entry, looked up): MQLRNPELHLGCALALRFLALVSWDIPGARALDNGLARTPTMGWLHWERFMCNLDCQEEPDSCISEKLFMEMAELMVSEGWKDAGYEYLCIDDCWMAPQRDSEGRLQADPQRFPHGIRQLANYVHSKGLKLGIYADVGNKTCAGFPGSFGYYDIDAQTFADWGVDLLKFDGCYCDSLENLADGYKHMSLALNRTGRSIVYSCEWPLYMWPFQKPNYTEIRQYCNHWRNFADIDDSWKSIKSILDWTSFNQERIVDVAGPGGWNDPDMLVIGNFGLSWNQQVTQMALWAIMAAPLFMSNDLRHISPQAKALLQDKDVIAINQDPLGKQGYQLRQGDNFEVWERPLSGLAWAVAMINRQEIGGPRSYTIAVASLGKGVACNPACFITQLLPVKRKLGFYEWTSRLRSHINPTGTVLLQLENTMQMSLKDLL
Rango-impB inh – Rango-importin beta binding inhibition | Q14974 | Rango CFP/YFP FRET sensor + importin beta, 45 min | Potency, µM (titrated, usually from 92.2 µM), without a hit: top-dose inhibition of complex formation | 340,000 tested, 0.031% active | AID 540263; active = rising FRET ratio curve, often small or poorly fitted; inconclusive = mostly compound fluorescence or quenching in the first reads; inactive = flat curves in all reads;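 note: potency is the fitted concentration of half-maximal effect; 0% = DMSO wells and 100% = buffer wells lacking importin beta; nearly all actives have a fitted effect of over 15% in size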
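Inhibition scored from the CFP 486 nm/YFP 530 nm FRET ratio 45 min after adding 0.125 microM importin beta to 50 nM Rango biosensor preincubated 5 min with compound (room temperature, PBS with DTT, Tween-20, BSA). No-importin wells as positive control.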
miR-21 reporter – miR-21 reporter, rising signal; 340,000 tested, under 10 active; HeLa miR-21 FLuc reporter, luciferase, 48 h; Potency, µM (doses to about 38.3 µM), inactives show at the highest dose reporter change, positive = more light; active = well fitted rising curve with a large enough effect; inconclusive = small, poorly fitted or top-dose-only effect; inactive = no such curve, though single readings can be large or run the other way;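 note: % of control where 0% means no effect; miR-21 action dims this reporter so a rising signal means less miR-21 action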
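Using DMEM plus 10% FBS, HeLa miR-21-FLuc cells are incubated with test compounds (final up to about 40uM) for 48 hours; firefly luciferase signal is then imaged following reagent-mediated lysis.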
Active calls of the source: *; ? = inconclusive; · = not tested or not shown; & = joins results of further samples. Some of the compounds tested (hit frequency here may not be typical).

mol | Rango dissoc inh | GLA inh pH 4.5 | Rango-impB inh | miR-21 reporter
O=C(O/N=C\c1ccc(N2CCCCC2)c([N+](=O)[O-])c1)c1cccc(Cl)c1 | -8% | 3 | ? | -1%
CCOc1ccc(NC(=O)c2[nH]c(C)c(C(C)=O)c2C)cc1 | -10% | · | 2.7% | -18%
Cc1ccc(NC(=O)CSc2nccn(-c3ccc4c(c3)OCCO4)c2=O)cc1 | -1% | · | -3.8% | ·
Nn1c(SCc2csc(-c3ccccc3)n2)nnc1-c1cccs1 | 0% | -29 | 0.7% | -7%
Cc1cc(C)n(C(=O)CCC(=O)NCc2ccccc2)n1 | 4% | -5 | -3.3% | 0%
O=C(Oc1ccc(Br)cc1C(=S)N1CCOCC1)c1ccccc1 | 26% | · | 0.4% | -4%
CC(=O)NS(=O)(=O)c1ccc(N=NN2CCCCCC2)cc1 | -2% | -21 | -0.2% | -6%
O=C(NC1(Cc2ccccc2)CCN(CCCc2ccccc2)C1=O)c1ccccc1 (configuration not stated) | 3% | · | 0.8% | ·
Cc1ccc(/C=C/C(=O)Nc2cccc3cccnc23)o1 | ? | -12 | ? | -25%
OCCOc1cccc(CN2CCC(CO)(CCOc3ccccc3)CC2)c1 | 11% | 5 | -0.8% | -6%
COc1ccc2nnc(-c3ccc(C(F)(F)F)cc3)n2n1 | 1% | 2 | -1.8% | -13%
C/C(=N\O)C(=O)NCC1CCNCC1 | 9% | 6 | -4.2% | -1%
Cc1ccc(CN(C(=O)Cn2nnc3ccccc32)C(C(=O)NCc2ccco2)c2ccc(C)o2)cc1 (configuration not stated) | 1% | 3 | 0.3% | -3%
CN(c1ccc(OCC(=O)NCCc2ccccc2)cc1)S(=O)(=O)c1ccc(Cl)cc1 | 23% | · | -0.8% | ·
CC(=O)Nc1ccc(OCC(O)Cn2nc(C)c(C(C)=O)c2C)cc1 (configuration not stated) | 3% | -8 | 1.0% | 4%
Cc1ccc(CN2CC(C(=O)OCc3ccccc3Cl)CC2=O)cc1 (configuration not stated) | 6% | · | -2.2% | ·
Cc1ccc(C(=O)NCC(c2ccco2)N2CCc3ccccc3C2)cc1C (configuration not stated) | -1% | · | -1.8% | ·
CCN(CC(=O)Nc1c(F)cccc1F)C(=O)CNC(=O)C1CCCCC1 | 9% | · | 0.4% | ·
O=C(CNC(=O)c1ccc2c(c1)OCO2)NCCOc1ccc(Cl)cc1 | -4% | · | 2.2% | ·
COc1ccc(CN(C)C(=O)c2sccc2-c2ccccc2)c(OC)c1 | -8% | · | -1.8% | 0%
CNC(=O)c1[nH]cnc1C(=O)Nc1ccccc1C | -6% | 7 | -3.6% | -8%
COC(=O)c1cc(NC(=O)c2cccnc2)cc(C(=O)OC)c1 | 0% | · | ? | 1%
CCOC(=O)c1[nH]c2ccccc2c1NC(=O)CN(C)C | -14% | -1 | -0.9% | 0%
Cc1ccc(CONC(=O)/N=C/N(C)C)cc1 | 3% | 9 | 6.0% | -5%
CCCS(=O)(=O)N1CCCC(C(=O)NC2CCCCC2)C1 (configuration not stated) | -11% | -3 | 0.8% | -14%
C[n+]1ccccc1/C=C/c1ccc2ncccc2c1 | -3% | · | -0.1% | -17%
O=C(COC(=O)CCc1c[nH]c2ccccc12)Nc1ccccc1C(F)(F)F | 1% | · | -4.1% | ·
CC(C)c1ccc(C(=O)Nc2ccc(CN3CCOCC3)cc2)cc1 | 2% | · | 1.9% | 4%
COc1ccccc1C(=O)NN=C1CCN(Cc2ccccc2)CC1 | -12% | -17 | -7.8% | -9%
CCOC(=O)/C(=C/C=C1\Sc2cc(OCC)c(OCC)cc2N1CC)C(C)=O | ? | -11 | ? | 1%
CC1C(=O)N(Cc2ccc(F)cc2)c2ccccc2N1C(=O)c1c(F)cccc1F (configuration not stated) | -8% | · | -0.5% | 15%
Cc1ccccc1OCC1Cn2c(nc3c2c(=O)n(C)c(=O)n3C)O1 (configuration not stated) | -8% | · | -1.0% | 8%
Cc1ccc(CSc2nnc(-c3ccccn3)n2N)cc1 | -4% | 1 | -3.3% | -30%
OC(CNCCCN1CCCCC1)COc1ccccc1 (configuration not stated) | -17% | 0 | -1.1% | -10%
COc1ccc(C2C3=C(CC(C)(C)CC3=O)Nc3n[nH]c(C)c32)cc1 (configuration not stated) | 0% | 6 | -0.7% | -6%
O=C(Nc1cccc(F)c1)c1ccccc1-c1ccccc1 | 3% | -9 | -2.3% | -3%
O=C1CN(C(=O)c2ccco2)C(c2ccc(F)cc2)c2cc(Cl)ccc2N1 (configuration not stated) | 2% | · | 0.5% | ·
CC1=NN(c2cccc(C(=O)O)c2)C(=O)/C1=C\C=C\c1ccco1 | -19% | 3 | ? | -19%
O=C(Nc1ccccc1)C1C2CCCCC21 (configuration not stated) | -3% | · | -2.9% | -40%
CCCN1Cc2cccc(C(=O)NC3CCCC3)c2C1=O | -2% | 2 | 1.5% | -9%
C=CC[C@@H](CC(=O)N(CCO)Cc1ccccc1)C(=O)N[C@@H](COC(=O)[C@H](CC=C)CC(=O)OC(C)(C)C)Cc1c[nH]c2ccccc12 | 25% | · | -1.9% | ·
COc1ccc2c(c1)c(CC(=O)Nc1ccc(C(C)=O)cc1)c(C)n2C(=O)c1ccc(Cl)cc1 | -8% | -1 | 3.1% | 0%&-1%
CCOC(=O)Cn1c(N2CCCCCC2)nc2c1c(=O)[nH]c(=O)n2C | 1% | -1 | -0.6% | -2%
Cc1c(CCC(=O)NCCCn2ccnc2)c(=O)oc2cc3occ(C(C)(C)C)c3cc12 | 11% | · | 0.0% | -9%
O=C(CN1C(=O)CCS(=O)(=O)c2ccccc21)NCc1ccc2c(c1)OCO2 | 14% | 7 | 1.9% | 2%
COc1ccc(C(=O)Nc2cccc3nc(C)ccc23)cc1OC | -1% | · | -4.0% | 0%
COCCn1c(SCC(=O)NCCCN2CCCC2=O)nc2ccccc2c1=O | 1% | · | 4.1% | ·
COc1ccc(CN(Cc2cc3cccc(C)c3[nH]c2=O)C(=O)N(C)C)cc1 | 11% | -4 | -3.4% | 1%
Cc1ccc(NC(=O)/C(=C\c2ccccc2)NC(=O)/C=C/c2ccccc2)cc1 | 1% | 3 | -2.1% | -11%
Cc1cc(NC(=O)C23CC4CC(C2)CC(n2cnc([N+](=O)[O-])n2)(C4)C3)no1 | 5% | -1 | 0.4% | 1%
CCOC(=O)c1cc(C(=O)OCC)cc(-n2c(C)cc(C(=O)CN3CCOCC3)c2C)c1 | 3% | 2 | -3.0% | 0%
Cc1ccc(Cl)cc1N1CCN(C(=S)NCc2ccco2)CC1 | 2% | 2 | 3.3% | 0%
O=C(OCC(=O)C12CC3CC(CC(C3)C1)C2)c1ccc(CO)cc1 | -11% | · | -6.7% | ·
C=C1CCN(C(CC(C)C)C(=O)OC)S(=O)(=O)c2ccccc21 (configuration not stated) | 25% | -8 | -6.8% | 1%
O=C(Cc1ccccc1)N/N=C\c1ccc(Br)o1 | 0% | -20 | -0.2% | -10%
Cc1ccc(C2CC(=O)c3cnc(N4CCN(c5ccccc5)CC4)nc3C2)cc1 (configuration not stated) | -13% | 9 | 6.1% | -3%
O=C(COc1ccc(Cl)cc1Cl)Nc1ccc(-c2ccc(N3CCOCC3)nn2)cc1 | 7% | · | -0.4% | ·
O=S(=O)(Nc1ncccn1)c1ccc(NS(=O)(=O)c2cccc(Cl)c2Cl)cc1 | -5% | -1 | -2.4% | 2%
Cc1cc2nc3c(c(C(F)(F)F)n2n1)CCCC3 | -10% | 5 | -1.5% | 0%
O=C(/C=C/c1c(Cl)cccc1Cl)NCCCn1ccnc1 | -1% | · | 0.1% | ·

The list continues.
mol | Rango dissoc inh | GLA inh pH 4.5 | Rango-impB inh | miR-21 reporter
COC(=O)Cn1c2ccc(C)cc2c2nc3ccccc3nc21 | 24% | · | -2.9% | 1%
Cc1ccc(S(=O)(=O)N2CCN(C(=O)C(C)Cn3nc(C)c(C)c3C)CC2)cc1C (configuration not stated) | -1% | · | -0.2% | -2%
Cc1nc2c(-c3ccc(F)cc3)c(C)nn2c(C)c1CCC(=O)Nc1ccc(F)cc1F | -2% | 3 | 0.4% | -3%
O=C(NCCCN1CCOCC1)c1cc2c(=O)[nH]c3ccccc3c2s1 | -1% | 4 | 4.1% | -15%
Cc1ccc(-c2nc(C)sc2CC(=O)Nc2cccc(C)c2C)cc1 | 7% | 0 | -2.1% | -6%
COc1ccc(OC)c(N(CC(=O)Nc2cccnc2)S(=O)(=O)c2ccc(OC)c(OC)c2)c1 | 20% | -4 | ? | 3%
Cc1ccc(C(=O)Nc2cccc(C(=O)N/N=C/c3ccccc3F)c2)cc1 | -20% | · | 0.6% | -18%
CC(=O)Nc1ccccc1NC(=O)c1cccc2ccccc12 | 13% | -1 | -2.0% | -7%
CCC/C(=N\NC(=O)C1CC1)c1ccccc1 | -5% | · | -0.5% | ·
CCCN1CCC(=O)N([C@H](CSc2ccccc2)Cc2ccccc2)CC1 | -22% | · | -3.6% | -1%
Nc1nnc(SCC(=O)N2CCc3ccccc32)n1-c1ccccc1 | -4% | 5 | -1.4% | 3%
O=C(COC(=O)Cc1c(Cl)cccc1Cl)Nc1ccc(OC(F)(F)F)cc1 | 3% | -4 | -1.0% | -9%
Cn1nnnc1Sc1ncnc2scc(-c3cccc(S(C)(=O)=O)c3)c12 | 4% | · | 1.2% | ·
O=C(CN(Cc1cccs1)C(=O)CCC(=O)Nc1ccccn1)NCc1ccccc1 | 9% | -3 | -5.3% | 4%
O=C(O)C1=C[C@H](c2ccc3c(c2)OCO3)C[C@H](OCCCCO)O1 | -8% | · | 2.2% | ·
CCn1c2ccccc2c2nnc(NN)nc21 | 2% | 3 | 3.2% | -11%
O=C(c1ccc(S(=O)(=O)N2CCCCC2)cc1)N1CCCc2ccccc21 | 7% | -12 | 3.1% | -1%
NC(=O)c1ccccc1NC(=O)CSc1cn[nH]n1 | -10% | · | -3.5% | -7%
CCN(CC)S(=O)(=O)c1cc(C(=O)N(C)CC(=O)Nc2ccc(Cl)cc2)ccc1Cl | ? | -5 | ? | 16%
O=C(CSc1nnnn1C1CCCCC1)N1c2ccccc2Sc2ccccc21 | 11% | -8 | 0.4% | 7%
O=C(Oc1ccccc1)c1ccc(NC(=O)c2ccco2)cc1 | -6% | -2 | 0.0% | -18%
CCN(CC)C(=O)c1[nH]cnc1C(=O)N[C@@H](C)C(=O)OC(C)(C)C | 0% | 1 | -3.2% | 1%
Cc1ccc(NCCc2ccc(C)nc2)cc1 | -6% | 1 | 1.4% | -29%
Cc1cc(C)nc(-n2nc(C)cc2NC(=O)CN2CCCC2)n1 | 11% | -2 | -0.1% | -4%
O=C(c1noc2c1CCCC2)N1CCN(Cc2ccccc2)CC1 | 16% | 10 | -2.3% | -19%
COCCCNC(=S)N1CCN(C(c2ccccc2)c2ccccc2)CC1 | -6% | · | -0.4% | -2%
CCCCn1c(-c2nonc2N)nc2ccccc21 | 16% | -15 | 4.2% | 25%
Cc1ccc(/C=C/S(=O)(=O)N2CCC(C(=O)O)CC2)cc1 | -2% | 4 | -3.5% | 0%
Fc1ccc(N2CCN(Cc3c[nH]c4ccccc34)CC2)cc1 | · | 0 | · | 4%
O=C(C=Cc1ccc2c(c1)OCO2)OCC=Cc1ccc2c(c1)OCO2 | 0% | · | 3.0% | ·
Cc1ccc(C(=O)N(c2c(C)n(C)n(-c3ccccc3)c2=O)C(C)C)cc1 | 18% | 3 | -0.3% | -2%
CCCC#Cc1ccc2c(c1)COc1c3ccccc3nn1-2 | 16% | · | -1.8% | ·
Cn1cc(C(=O)N2CCCC(Nc3ccc(F)cc3)C2)c2ccccc21 (configuration not stated) | 3% | · | -0.3% | 3%
Cc1nc(CNS(=O)(=O)c2cc(C)c(C)cc2C)cs1 | -3% | 2 | 1.8% | -9%
COc1ccc(/C=N/n2cnc3c([nH]c4ccc(F)cc43)c2=O)cc1CSc1ccccn1 | 15% | 11 | -2.4% | 0%
Cc1cccc(C)c1-n1c(C)cc(/C=N/NC(N)=S)c1C | -13% | 3 | -5.0% | 8%

Individual results from the list.
Rango dissoc inh with O=C(/C=C/c1c(Cl)cccc1Cl)NCCCn1ccnc1 = -1%
Rango dissoc inh with O=C(O)C1=C[C@H](c2ccc3c(c2)OCO3)C[C@H](OCCCCO)O1 = -8%
